# VACV Venus inh = inhibitors of vaccinia virus (Venus reporter) | Vaccinia virus Venus reporter expression, fluorescence | Potency, µM (series often up to 36.5 µM), for the others: top-dose activity change, negative = inhibition, usual class: inhibitors | 330,000 tested, 0.46% active | AID 720580; active means well fitted inhibition curve with a large enough effect; inconclusive means small, poorly fitted or top-dose-only effect; inactive means no such curve, though single readings can be large or run the other way; tested in A549 cells; note: nearly all actives have a fitted effect of over 30% in size; inactives centre near -10
# Vaccinia mCherry = inhibitors of vaccinia virus infection (mCherry reporter signal). Vaccinia virus mCherry reporter infection, fluorescence; about a quarter of the inactives have no number. Potency, µM (doses to about 36.5 µM), without a hit: at the highest dose activity change, negative = inhibition, usual class: inhibitors. 310,000 tested, 0.63% active; active = well fitted inhibition curve with a large enough effect; inconclusive = small, poorly fitted or top-dose-only effect; inactive = no such curve, though single readings can be large or run the other way; tested in A549 cells; note: nearly all actives have a fitted effect of over 35% in size; inactives centre near -10
# * marks the source's active call; other numbers are inactive results; i = inactive; u = inconclusive; x = no result given; & = joins results of further samples; [ ] = remark or other dose. % is set by controls: 0 for no effect and ±100 for the full control effect; potency is the fitted concentration of half-maximal effect.
compound	VACV Venus inh	Vaccinia mCherry
COc1ccccc1N(CC(O)CN1CCCCC1)S(=O)(=O)c1ccc(C)cc1 (stereo unspecified)	-5%	-21%
COCCCNc1nc2c(c(=O)n(C)c(=O)n2C)n1Cc1ccccc1	-15%	-11%
C=CCS(=O)(=O)c1cccc2cccnc12	-17%	-3%
O=C(O)CCn1cnc2ccccc2c1=O	-2%	x
Cc1ccc(-c2csc3nnc(SCC(=O)N4CCN(Cc5ccccc5)CC4)n23)cc1	-12%	-14%
CCOC(=O)CC1(C)N(S(=O)(=O)c2ccc(C)cc2)c2ccccc2N1S(=O)(=O)c1ccc(C)cc1	-4%	-6%
Cc1ccc(C(=O)Nc2cccc(C(F)(F)F)c2)cc1Nc1ccccn1	-19%	-21%
C[C@@H]([C@H](O)c1ccccc1)N(C)C	14%	5%
CCOC(=O)c1noc2ncnc(Nc3ccc(F)cc3F)c12	-7%	-11%
CC(C)NC(=O)NC(=O)CSc1ccccc1F	-5%	i
Cc1cc2oc(C(=O)Nc3c(C)n(C)n(-c4ccccc4)c3=O)cc(=O)c2cc1C	3%	10%
COc1ccc(C(=O)NC(=S)Nc2cccnc2)cc1OC	-10%	-2%
CCN(CC)S(=O)(=O)c1ccc2oc(C(=O)NC3CCCc4ccccc43)c(C)c2c1 (stereo unspecified)	-12%	i
O=C(Nc1ccc(NC(=O)c2cccs2)c(Cl)c1)c1ccco1	-19%	i
O=C(C1CCN(S(=O)(=O)c2cccs2)CC1)N(c1ccccn1)C1CCCCC1	-3%	i
Cc1cc(C(=O)OCC(=O)c2ccc(Br)s2)no1	-2%	-14%
CCOc1ccc(C(=O)NCc2ccncc2)cc1OCC	1%	-13%
CS(=O)(=O)N(CC(=O)NCCC1=CCCCC1)C1CCCCC1	-15%	x
Clc1nnc(NN=C2CCCC2)c2ccccc12	0%	-16%
Oc1ccc(O)c(Cc2nc3ccccc3s2)c1	-2%	u
CON1C(=O)C(=O)N(OC)C2CCCCC21 (stereo unspecified)	-11%	-15%
O=C(c1c(F)cccc1F)N1CCCc2ccccc21	-18%	0%
CN(c1ccccc1)S(=O)(=O)c1cccc(C(=O)NNC(=O)c2ccncc2)c1	-13%	-2%
COc1ccc(NC(=O)CN(C)C(=O)c2cc(CN3C(=O)c4ccccc4C3=O)ccc2OC)cc1	4%	-7%
CC(C)c1ccc(NC(=O)C(c2ccccc2)N(C)C(=O)c2cnccn2)cc1 (stereo unspecified)	-5%	-13%
O=C(O)c1ccc2nc(-c3ccccc3)c(-c3ccccc3)nc2c1	-10%&-1%	-15%
Cc1ccc(S(=O)(=O)N2CCCC(c3nc4c(nnn4Cc4ccc(OC(F)(F)F)cc4)c(=O)[nH]3)C2)cc1 (stereo unspecified)	-10%	0%
CC(C)(C)c1ccc(OCC(O)CS(=O)(=O)c2ccccn2)cc1 (stereo unspecified)	-14%	i
CC1=C(C(=O)N2CCOCC2)CC(CC(=O)NC(c2ccccc2)c2ccccc2)C(=O)N1CCC1=CCCCC1 (stereo unspecified)	-17%	i
Cc1ccc(S(=O)(=O)NCCCCCC(=O)Nc2cccc(C)c2)cc1	-20%	-28%
CCOC(=O)c1ccc(NC(=S)N2CCCC(C(=O)OCC)C2)cc1 (stereo unspecified)	-1%	-10%
Cc1ccc(NC(=O)C2=C(C(=O)O)CCCC2)cc1Br	-8%	-10%
CSc1ccccc1C(=O)Nc1cccc([N+](=O)[O-])c1	-10%	2%
CC(C)NC(=O)CN(Cc1ccccc1)S(=O)(=O)c1ccccc1	2%	-10%
O=C(c1cc(Cl)cc(Cl)c1)N1CCC2CC1c1cc(N3CCCCC3)ccc12 (stereo unspecified)	-19%	-15%
Nn1c(-c2ccccc2)nc2ccccc2c1=O	-4%	-7%
O=C(Nc1ncn[nH]1)c1ccc(Cl)c(S(=O)(=O)Nc2ccc(Cl)cc2)c1	-16%	i
O=C(C(NS(=O)(=O)c1cccs1)c1ccccc1)N1CCN(c2ccccc2F)CC1 (stereo unspecified)	-12%	-2%
NC(=O)COc1ccc(C(=O)/C=C2/C(=O)Nc3ccccc32)cc1	-21%	-22%
COc1ccc(S(=O)(=O)Nc2ccc3c(c2)CCC3)cc1	-10%	-14%
COc1ccc(NC(=O)Nc2cc(F)ccc2C)cc1	-14%	-30%
CC(C)(C)[C@H]1C=C(C(=O)Nc2ccccc2)O[C@@H](OCCCCO)C1	-11%	i
O=C1C=C(NCc2ccco2)C2(CCCCC2)O1	-15%	x
COc1ccccc1NC(=O)Cn1c(=O)n(Cc2ccc3c(c2)OCO3)c(=O)c2oc3ccccc3c21	-5%	i
COc1ccc(-n2nnnc2C(CCSC)N2CCC(n3c(=O)[nH]c4ccccc43)CC2)cc1 (stereo unspecified)	-9%	11%
COc1ccccc1OCCCCNC(C)(C)C	-7%	-16%
CC/C(=C/c1sc2ccccc2[n+]1CC)SC	-14%	i
CCN1CCN(C(=O)CCS(=O)(=O)c2cc3c(cc2Cl)NC(=O)CO3)CC1	-3%	-2%
COc1ccccc1-c1noc2c1C(=O)N(Cc1cn(-c3ccccc3)nn1)CC2	-6%	-3%
CCOC(=O)n1c(=O)n(Cc2ccccc2)c2ccccc21	-17%	i

# Entries of single compounds, quoted from the list. Screens in order: VACV Venus inh, Vaccinia mCherry
# CCOC(=O)n1c(=O)n(Cc2ccccc2)c2ccccc21 is entered as -17%, i
# CSc1ccccc1C(=O)Nc1cccc([N+](=O)[O-])c1 is entered as -10%, 2%

# Later entries
compound	VACV Venus inh	Vaccinia mCherry
Cc1cccc(C(=O)OCC(=O)NCCCc2ccccc2)c1	-9%	11%
Cc1ccccc1OCC(O)Cn1c(=N)n(CCN2CCCCC2)c2ccccc21 (stereo unspecified)	u	u
Cc1c(C(=O)Nc2cccc(F)c2)oc2c1-c1nn(Cc3c(F)cccc3Cl)cc1CC2	-9%	-22%
O=C(CCc1nc2ccccc2[nH]1)N1CCc2ccccc2C1	-10%	3%
Cc1ccc([C@H]2C[C@@H](n3cc(-c4ccc(F)cc4)nn3)[C@H](O)CN2CC2CCCCC2)cc1	u	-8%
CCOc1ccc(-c2cc(N)n(S(=O)(=O)c3ccc(OC)cc3)n2)cc1	-14%	u
CCOCCCNC(=O)C(c1ccc(OC)cc1)N(Cc1cccs1)C(=O)c1ccc(NC(C)=O)cc1 (stereo unspecified)	-5%	5%
CCCCCCOC(=O)c1ccc(N)cc1	-9%	-18%
CCc1nc(SCC(=O)O)c(C#N)c2c1CCCC2	0%	6%
Cc1[nH]c(=O)[nH]c(=O)c1C=CC(=O)NC(CO)CS(=O)Cc1ccccc1 (stereo unspecified)	-5%	i
CCCNC(=O)C1CCN(S(=O)(=O)c2cccc3nonc23)CC1	-2%	-9%
Cc1cc(C)c2cc(CN(CCN3CCCC3)C(=O)Nc3ccc(F)cc3)c(=O)[nH]c2c1	-22%	x
O=C(NN1C(=O)c2ccccc2NC1c1ccccc1OCc1ccccc1)c1ccncc1 (stereo unspecified)	-20%	x
Nc1nc(Sc2ccc(C(F)(F)F)cc2[N+](=O)[O-])n[nH]1	-12%	-8%
O=C(NCCc1c[nH]c2ccccc12)C(=O)NCC(c1ccco1)N1CCN(c2ccc(F)cc2)CC1 (stereo unspecified)	-9%	-9%
O=C(Cc1ccccc1)NCCCNC(=O)Cc1ccccc1	-3%	i
CCOc1cc(C)c(S(=O)(=O)NC2CCCCC2)cc1C	-28%	x
CN1OC[C@@H]2CN(Cc3ccc(Cl)cc3)[C@H](c3cccc(Br)c3)C[C@@H]21	-7%	-17%
c1ccc(CC2CCCCN2)cc1 (stereo unspecified)	2%	-9%
Cc1cc(C(=O)COC(=O)C23CC4CC(CC(O)(C4)C2)C3)c(C)n1-c1c(C)n(C)n(-c2ccccc2)c1=O	-3%	-8%
CC(C)OCCCN(CC(O)c1ccccc1)CC(O)c1ccccc1 (stereo unspecified)	11%	-2%
Cn1c(N)c(C(=O)COC(=O)CNS(=O)(=O)c2cccc(Cl)c2)c(=O)n(C)c1=O	-5%	i
Cc1cc(C(=O)N/N=C/c2ccc(-c3cccc(Cl)c3Cl)o2)n[nH]1	-19%	-8%
COc1ccc(-n2c(Cc3cc(=O)[nH]c(=O)[nH]3)nnc2SCC(=O)Nc2ccccc2)cc1	0%	-2%
COc1ccc(CN2CCCCCC2)cc1	-3%	i

# Going on with the list:
# The line under a structure holds: VACV Venus inh | Vaccinia mCherry
- CCCn1nc(Oc2nc(NC(C)C)nc(N(C)C)n2)ccc1=O
 : -18% | -1%
- CN(C)c1ccc(CC(=O)N2CCCCC2c2cc(C(=O)Nc3cccc(C#N)c3)no2)cc1 (stereo unspecified)
 : -14% | i
- O=c1oc2ccccc2cc1-c1csc(NN=C2CCCC2)n1
 : -11% | i
- COCCCNC(=S)NNC(=O)c1cc(C2CC2)nc2ccccc12
 : -15% | -4%
- Cc1cc(NC(=O)CSc2nc3cc(Cl)ccc3c(=O)n2Cc2ccco2)no1
 : 0% | -6%
- Cc1ccc(-n2nc(C)c(=O)c(-c3ccccc3)c2NC(=O)C(C)C)cc1
 : -1% | i
- COc1ccc(C(=O)COC(=O)C2CCC(=O)N2)cc1 (stereo unspecified)
 : -7% | -10%
- O=C(NCCC1=CCCCC1)C(=O)c1c[nH]c2ccccc12
 : -22% | -28%
- O=C(CCCCl)N1CCc2[nH]c3ccccc3c2C1
 : -5% | i
- CN(C)c1ccc(-c2csc(C(C)(O)c3cccc(F)c3)n2)cc1 (stereo unspecified)
 : -27% | -8%
- O=C(CSc1n[nH]c(-c2ccncc2)n1)Nc1ccc(Br)cc1
 : -11% | -1%
- O=C(NC1CC1)c1cccc(NC(=O)C2CCC2)c1
 : 24% | 12%
- COc1cccc(CN(C)c2nc(-c3cccs3)nc3ccccc23)c1
 : 0% | -9%
- CCOc1ccccc1N1CC(C(=O)N(Cc2nnc(-c3ccccc3Cl)o2)C2CC2)CC1=O (stereo unspecified)
 : -12% | -18%
- Cc1ncc(CC(=O)n2cc(C(=O)c3cc(F)ccc3O)cn2)s1
 : -15% | -18%
- COc1sc(SC)cc1/C=N/NC(=O)c1ccncc1
 : -8% | -19%
- NC(=O)c1ccccc1O
 : -13%&-2% | -14%
- N#Cc1c(Cl)nsc1NN
 : -6% | -24%
- CC(Sc1ccc(Br)cc1)C(N)=O (stereo unspecified)
 : -15% | -2%
- CCC(C)c1ccc(-c2cc(C(=O)OCC(=O)Nc3cc(C)on3)c3ccccc3n2)cc1 (stereo unspecified)
 : -5% | -7%

# An excerpt of these results, with each value named:
COc1cccc(CN(C)c2nc(-c3cccs3)nc3ccccc23)c1
  VACV Venus inh: 0%	Vaccinia mCherry: -9%
Cc1ncc(CC(=O)n2cc(C(=O)c3cc(F)ccc3O)cn2)s1
  VACV Venus inh: -15%	Vaccinia mCherry: -18%
O=C(NC1CC1)c1cccc(NC(=O)C2CCC2)c1
  VACV Venus inh: 24%	Vaccinia mCherry: 12%
CCC(C)c1ccc(-c2cc(C(=O)OCC(=O)Nc3cc(C)on3)c3ccccc3n2)cc1 (stereo unspecified)
  VACV Venus inh: -5%	Vaccinia mCherry: -7%

# Single values from the list:
# Reading of `CC(Sc1ccc(Br)cc1)C(N)=O` (stereo unspecified) under Vaccinia mCherry: -2%
# Reading of `NC(=O)c1ccccc1O` under Vaccinia mCherry: -14%
# Reading of `Cc1ncc(CC(=O)n2cc(C(=O)c3cc(F)ccc3O)cn2)s1` under VACV Venus inh: -15%

# (listing goes on)
# The line under a structure holds: VACV Venus inh | Vaccinia mCherry
- CCC(=O)N1CCCc2cc(S(=O)(=O)NCc3cccs3)ccc21
 : -17% | i
- Cc1ccc(-c2nc3ccccc3c(=O)n2CCCN2CCOCC2)cc1
 : -8% | -10%
- Cc1ccc(NC(=O)CN(C)C(=O)CNC(=O)c2ccc3c(c2)OCO3)cc1
 : -19% | -27%
- COc1ccc(Cc2nnc(NC(=O)Cc3cccs3)s2)cc1
 : -13% | i
- CCOc1ccccc1N1CCN(C(=O)c2csc(C)c2CC)CC1
 : -13% | -15%
- CCN(C(=O)CSc1nnc(-c2ccco2)n1C)c1c(N)n(Cc2ccccc2)c(=O)[nH]c1=O
 : 1% | i
- Cc1ccc(C)c(NC(=O)CN2C(=O)C3(SCC(=O)N3c3ccc(C)c(C)c3)c3ccccc32)c1 (stereo unspecified)
 : -20% | -18%
- CCN(C(=O)COC(=O)c1cc(NS(=O)(=O)c2ccc(Cl)c([N+](=O)[O-])c2)ccc1O)C1CCCCC1
 : -4% | -16%
- Fc1cccc(-c2cncc(N3CCN(CCN4CCCC4)CC3)n2)c1
 : -3% | 0%
- O=C(c1cccnc1)n1nc(NCc2ccccc2)nc1NCc1ccccc1
 : 9% | -26%
- COc1ccc(C(=O)COC(=O)CNC(=O)c2ccc(Cl)cc2Cl)c(OC)c1
 : 0% | i
- COc1cc(CNc2ccc(O)cc2)cc(Br)c1OCc1ccccc1F
 : -1% | -2%
- NS(=O)(=O)c1ccc(CCNC(=O)C2CCC(CNS(=O)(=O)c3ccc(Br)s3)CC2)cc1 (stereo unspecified)
 : -4% | -1%
- COc1cccc(NC(=O)c2ccccc2-c2ccccc2)c1
 : -5% | u
- CC1(C(=O)NNC(=O)c2cccc([N+](=O)[O-])c2)CC1Br (stereo unspecified)
 : -9% | -16%
- COc1cc(OC)c(NC(=O)N2CCSc3ccccc32)cc1Cl
 : -2% | -15%
- CCCOc1ccc2c3c(c(=O)oc2c1)CCCC3
 : -11% | -6%
- Cc1ccc(-c2c(C#N)c(N)nc3c2CCCC3)s1
 : -13% | -18%
- CCCCN1CC(N2CCN(C3CCN(C)CC3)CC2)CS1(=O)=O (stereo unspecified)
 : 2% | 37%[activator]
- CC(N=C1NS(=O)(=O)c2ccccc21)C(=O)NCc1ccc2c(c1)OCO2 (stereo unspecified)
 : -15% | x
- C=CCOc1c(Cl)cc(/C=N/O)cc1OC
 : -3% | -8%
